Screens as filed in PubChem BioAssay.
Cruzain inh Det: qHTS Assay for Promiscuous and Specific Inhibitors of Cruzain (with detergent); purified cruzain, Z-FR-AMC fluorescence, 0.01% Triton; AID 1478, 2009; Cruzipain (Trypanosoma cruzi), P25779; hit rate 0.43% among 200,000; Potency, µM, for inactives: max response, negative = inhibition, hits mostly inhibitors;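 further: plate controls were neutral wells for no effect and buffer without enzyme for full effect; nearly all actives have a fitted effect of over 40% in size; top concentration of the series not given in the record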
Target sequence (P25779 123-467 limits assumed): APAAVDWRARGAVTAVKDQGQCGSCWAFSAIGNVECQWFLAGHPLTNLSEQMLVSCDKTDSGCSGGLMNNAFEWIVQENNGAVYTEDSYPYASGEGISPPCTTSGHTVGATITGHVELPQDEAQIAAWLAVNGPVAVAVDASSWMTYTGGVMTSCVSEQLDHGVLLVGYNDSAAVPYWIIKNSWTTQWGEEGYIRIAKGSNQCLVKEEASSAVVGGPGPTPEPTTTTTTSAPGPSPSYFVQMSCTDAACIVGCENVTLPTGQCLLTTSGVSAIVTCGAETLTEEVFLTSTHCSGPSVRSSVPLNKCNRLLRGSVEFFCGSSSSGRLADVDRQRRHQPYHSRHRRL
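Cruzain (1.5 nM) preincubated 15 min at RT with compound in 100 mM sodium acetate pH 5.5, 5 mM DTT, 0.01% Triton X-100. Reaction started with 2 uM Z-FR-AMC; AMC fluorescence (ex 360/em 450 nm) change over 60 s gave rate.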
StopGo reporter: High Throughput Screening for Foot and Mouth Disease Virus Antivirals | human cells with a luciferase reporter of 2A StopGo recoding; control for the full effect not named in the record | Potency, µM (series often up to 57.9 µM), inactives show top-dose signal change, negative = less light | hit rate 1.2% among 410,000; active = well fitted falling curve with a large enough effect; inconclusive = small, poorly fitted or top-dose-only effect; inactive = no such curve, though single readings can be large or run the other way; tested in HEK293T cells; further: nearly all actives have a fitted effect of over 45% in size; luciferase light after 4 h
Cruzain inh noDet: qHTS Assay for Promiscuous and Specific Inhibitors of Cruzain (without detergent) | Potency, µM, for the others: max response, negative = inhibition, hits mostly inhibitors | hit rate 2.3% among 200,000 | Cruzipain (Trypanosoma cruzi), P25779 | purified cruzain, Z-FR-AMC fluorescence, no detergent | AID 1476, 2009;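 further: plate controls were enzyme without inhibitor for no effect and buffer without enzyme for full effect; nearly all actives have a fitted effect of over 40% in size; top concentration of the series not given in the record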
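Purified cruzain at 1.5 nM, pre-incubated 15 min with compound at room temperature in 100 mM sodium acetate pH 5.5, 5 mM DTT, 0.00005% Triton X-100. Reaction started with 2 uM Z-FR-AMC; AMC fluorescence increase over 60 s gives rate.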
An asterisk follows results filed as active; u = inconclusive; & = joins results of further samples; [ ] = dose if it differs, or a comment. Unless noted, the call rests on the fitted dose curve; in most records, active means well fitted curve in the direction sought with a large enough effect; inconclusive means small, poorly fitted or top-dose-only effect, or another doubt; inactive means no such curve, though single readings can be large; an effect the other way counts as inactive or inconclusive. Unless noted, on the % scale 0 is the no-effect control and ±100 the full control effect; potency means the concentration at half of the fitted maximal effect.

Second line of a record: Cruzain inh Det	StopGo reporter	Cruzain inh noDet
Clc1ccccc1-c1ccc2ncnc(N3CCNCC3)c2c1
→ -0.1%	-1%	9%
COc1cc2cc3c4cc(OC)c(OC)cc4cc[n+]3c(C)c2cc1OC
→ 23%&7.3%	3%	u
CCNc1ncc2nc(-c3ccccc3)c(=O)n(C)c2n1
→ -0.7%	31%[activator]	u
CCCCC(=O)Oc1ccccc1C(=O)O
→ 2.9%	5%	-3%
COc1ccc(NC(=O)N2CC[C@@]3(CCCN(C(=O)Oc4ccccc4)C3)C2)cc1
→ 6.6%	-5%	5%
COc1cccc(-c2nc(NCc3cccs3)c3ccccc3n2)c1
→ -7.2%	18%	-3%
CN(C)c1ccc(-c2nccc(Nc3ccc(F)cc3)n2)cc1
→ -16%	4%	20%
Cc1noc(C)c1-c1nc(N(C)Cc2ccco2)c2ccccc2n1
→ -3.7%	u	-22%
CC1/C=C/C=C/C=C/C=C/C=C/C=C/C=C/C(OC2OC(C)C(O)C(N)C2O)CC2O[C@@](O)(CC(O)CC(O)C(O)CCC(O)CC(O)CC(=O)OC(C)[C@H](C)C1O)CC(O)C2C(=O)O (stereo partly drawn)
→ -13%	3%	u
COc1ccc(-c2nc3cnc(N4CCOCC4)nc3n(-c3ccc(OC)cc3)c2=O)cc1
→ -13%	-26%	u
CC(C)CN1CC[C@@]2(CCCN(C(=O)c3cccc(F)c3)C2)C1
→ 0.2%	-10%	-8%
Cc1ccccc1-c1cncnc1NCc1ccccc1
→ 4.7%	-12%	2%
COc1ccccc1-c1cc(NCc2ccccc2)ncn1
→ 0.8%	-7%	1%
COc1ccc(-n2c(=O)c(-c3ccc(Cl)cc3)nc3cnc(N4CCOCC4)nc32)cc1
→ -4.8%	-6%	0%
Cc1cccc(CNc2ccnc(-c3cccc(NS(C)(=O)=O)c3)n2)c1
→ 3.9%	u	7%
O=c1cnc2cnc(N3CCOCC3)nc2n1C1CC1
→ 2.3%	-26%	-11%
CC1(C)C(O)CC[C@]2(C)C1CC[C@@]1(C)C2C(=O)C=C2[C@@H]3C[C@@](C)(C(=O)O)CC[C@@]3(C)CCC21C (stereo partly drawn)
→ -11%	25%	u
O=C(c1ccco1)N1CCC2(CC1)CN(c1ccccn1)C2
→ 5.8%	-6%	12%
CS(=O)(=O)N1CCC2(CCN(c3ccncc3)CC2)CC1
→ 0.4%	-17%	-2%
COc1cccc(Cn2c(=O)c(-c3cccs3)nc3cnc(Nc4ccccc4)nc32)c1
→ 1.5%	-5%	9%
COc1ccccc1CC(=N)N1C[C@@H]2C(=O)CCC(c3ccccc3)(c3ccccc3)[C@@H]2C1
→ -0.6%	-23%	0%
C=C1C(=O)OC2C[C@@]3(C)CCCC(C)C3=CC12 (stereo partly drawn)
→ 0.4%	u	-6%
COCC(=O)N1CCC[C@@]2(CCN(Cc3ccc(C#N)cc3)C2)C1
→ 1.1%	-13%	-8%
CCNc1ncc2nc(-c3cccs3)c(=O)n(C[C@H]3CCCO3)c2n1
→ 0.7%	-13%	12%
O=C1c2ccccc2CC[C@H]1CNCCc1ccc(O)cc1
→ 0.2%	-6%	0%
N#Cc1cccc(-c2ccc3ncnc(NCc4ccccc4)c3c2)c1
→ -7.3%	u	-10%
CCOC(=O)c1c(C)[nH]c2ccc3c(c12)CN1CCc2cc(OC)ccc2[C@@H]1O3
→ -13%	u	-11%
C=CC1=C(C)C2=NC1=CC1=NC(=CC3=NC(=CC4=NC(=C2)C(C)=C4CCC(=O)O)C(CCC(=O)O)=C3C)C(C=C)=C1C.[Zn]
→ u	-24%	u
CC(C)[C@@H]1[C@H]2CC[C@H](C2)[C@H]1N
→ 1.2%	-21%	4%
COc1ccc2cccc(N3CCN(CCNC(=O)c4ccc(F)cc4)CC3)c2c1
→ -4.3%	u	4%
COc1ccccc1-c1nc(NCCNC(C)=O)c2ccccc2n1
→ -8.8%	-5%	-1%
COc1ccc2c(=O)c(OC)c(-c3ccccc3)oc2c1
→ 6.3%	11%	u
CC(=O)N1CCC2(CCCN(c3ncccn3)C2)CC1
→ -0.5%	8%	-12%
COc1ccc(C(=O)N2CCC3(CCCN(c4ncccn4)C3)CC2)cc1
→ 1.0%	17%	9%
N=C(N)N
→ 8.3%	-11%	-2%
O=C(Nc1cccc(F)c1)N1CC[C@@]2(CCCN(C(=O)c3cnccn3)C2)C1
→ 3.1%	-7%	8%
O=C(c1cccc(F)c1)N1CCC2(CCCN(c3ccccc3)C2)CC1
→ -0.1%	3%	-6%
COC(=O)N1CCC2(CCN(Cc3nccs3)CC2)CC1
→ 0.7%	-10%	-6%
CC1(C)CC[C@]2(C(=O)O)C(O)C[C@@]3(C)C(=CCC4[C@@]5(C)CCC(O)C(C)(C)C5CC[C@@]43C)C2C1 (stereo partly drawn)
→ 7.2%	-13%	8%
COc1ncc2nc(-c3ccc(Cl)cc3)c(=O)n(-c3ccccc3)c2n1
→ 2.6%	u	-4%
CC(=O)OC1CC2C(C)(C)C=CC(=O)[C@@]2(C)C2CC[C@@]3(C)C(c4ccoc4)OC(=O)C4OC43[C@]12C (stereo partly drawn)
→ -1.1%	8%	-12%
O=C(c1cccc(F)c1)N1CCC2(CC1)CCN(c1ccc(-c3ccccc3)cc1)CC2
→ 2.0%	-18%	-6%
O=C(c1cnccn1)N1CCC2(CC1)CN(Cc1ccncc1)C2
→ -1.7%	-12%	4%
C1=C(CN2CCOCC2)COc2c1cccc2OC[C@@H]1CNCCO1
→ 1.2%	11%	7%
COc1ccc(Oc2ncc3nc(-c4ccc(F)cc4)c(=O)n(C4CC4)c3n2)cc1
→ -0.7%	1%	-7%
O=C(c1cc(C(F)(F)F)cc(C(F)(F)F)c1)N1CCC2(CC1)CCN(c1ccccn1)CC2
→ -4.3%	-25%	13%
COc1ccccc1CN1CCCC2(CCN(S(=O)(=O)c3ccccc3)CC2)C1
→ 3.7%	-3%	5%
N#Cc1cccc(-c2nc(Nc3ccccc3)c3ccccc3n2)c1
→ 0.5%	u	1%
COc1cc(C)c(CC/C(C)=C/C=C/C(C)=O)c(C)c1C
→ -8.6%	-21%	10%
CN1CCN(c2ncnc3ccc(-c4ccoc4)cc23)CC1
→ -6.7%	0%	-28%
CSc1nc(NC2CCCC2)c([N+](=O)[O-])c(NC2CCCC2)n1
→ -2.3%	-17%	2%
COc1ncc2ncc(=O)n(Cc3cccs3)c2n1
→ -0.2%	-18%	-1%
COCC(=O)N1CCC2(CC1)CCN(c1ccc(-c3ccccc3)cc1)CC2
→ -1.4%	u	u
COc1cccc(Cn2c(=O)c(-c3ccccc3)nc3cnc(N4CCNCC4)nc32)c1
→ 4.0%	-1%	-6%
COc1ccc(Oc2ncc3nc(-c4cc(F)cc(F)c4)c(=O)n(C)c3n2)cc1
→ 9.1%	-14%	22%
c1ccc(CNc2ncnc3ccc(-c4ccoc4)cc23)cc1
→ -13%	-29%	-24%
CC1CC[C@@]2(OC1)OC1C(O)C3C4CC[C@H]5CC(O[C@@H]6O[C@@H](CO)[C@H](OC7OC(CO)C(O)C(OC8OCC(O)C(O)[C@H]8O)[C@@H]7O[C@@H]7OC(CO)[C@H](O)[C@@H](O[C@@H]8OC(CO)C(O)C(O)C8O)C7O)C(O)C6O)C(O)C[C@]5(C)C4CC[C@]3(C)C1C2C (stereo partly drawn)
→ -2.2%	35µM*	u
Cc1noc(C)c1C(=O)N1CCC2(CC1)CN(C(=O)Nc1cccc(F)c1)C2
→ 2.2%	-5%	6%
COc1cc2c(cc1O)CCC1C2CC[C@@]2(C)C1CC[C@@H]2O (stereo partly drawn)
→ -3.4%	u	2%
CN(C)c1ncc2ncc(=O)n(C)c2n1
→ -6.5%	10%	u

More results.
Second line of a record: Cruzain inh Det	StopGo reporter	Cruzain inh noDet
COc1ccc(-n2c(=O)c(-c3cn(C)c4ccccc34)nc3cnc(N4CCOCC4)nc32)cc1
→ 1.3%	-5%	-3%
COc1ccc(CNc2ncnc3ccc(-c4c(C)noc4C)cc23)c(OC)c1
→ -2.6%	24%	-4%
COc1ccc2[nH]cc(CCNc3ccnc(-c4ccoc4)n3)c2c1
→ -0.5%	u	-22%
COc1cccc(Nc2ncc3ncc(=O)n(Cc4ccc(F)cc4)c3n2)c1
→ -1.0%	-15%	-9%
N#CCCn1c(=O)cnc2cnc(Oc3cccc(Cl)c3)nc21
→ -2.6%	-10%	2%
CS(=O)(=O)N1CCC[C@@]2(CCN(C(=O)Nc3ccccc3)C2)C1
→ 1.9%	6%	-6%
O=C(c1csnn1)N1CCC[C@@]2(CCN(Cc3cc(C(F)(F)F)cc(C(F)(F)F)c3)C2)C1
→ 3.2%	-8%	-4%
CC(C)C[C@@H](NC(=O)OCC1c2ccccc2-c2ccccc21)C(=O)O
→ -2.0%	-9%	u
COc1ccc2[nH]cc(CCNc3ccnc(-c4cccc(C#N)c4)n3)c2c1
→ -6.4%	u	-23%
N#Cc1ccc(CN2CCCC3(CCN(C(=O)c4cnccn4)CC3)C2)cc1
→ -0.4%	-16%	11%
COc1ccc(Oc2ncc3nc(-c4ccc(Cl)cc4)c(=O)n(CCC#N)c3n2)cc1
→ -2.4%	u	-19%
CCCCN1CCC[C@@H]1CNC(=O)c1cc(C#N)c2ccccc2c1OC
→ -0.5%	11%	15%
CN(C)c1ncc2nc(CCc3ccccc3)c(=O)n(C3CC3)c2n1
→ -4.1%	9%	5%
CN1CCN(c2ncnc3ccc(-c4cccc(C#N)c4)cc23)CC1
→ -2.5%	-23%	-17%
CNCCCCCCCCSc1nc(C(C)C)ccc1C(=O)c1cccs1
→ -3.0%	49%[activator]	21%
Cc1nc2cnc(N3CCOCC3)nc2n(C2CC2)c1=O
→ -5.5%	41%[activator]	-12%
COc1ccccc1CN1CCCC2(CCN(C(=O)c3c(C)noc3C)CC2)C1
→ -0.3%	-7%	-1%
COCC(=O)N1CCC2(CC1)CN(C(c1ccccc1)c1ccccc1)C2
→ 3.8%	-3%	-1%
Cc1noc(NS(=O)(=O)c2cccc3c(N(C)C)cccc23)c1C
→ -3.6%	-8%	0%
COc1ccc(CNc2cc(-c3ccccc3CN(C)C)ncn2)c(OC)c1
→ -0.7%	19%	5%
COC(=O)N1CCC[C@@]2(CCN(C(=O)Nc3cccc(F)c3)C2)C1
→ 2.6%	2%	-4%
COc1ccc(NC(=O)N2CCCC3(CCN(C(C)=O)CC3)C2)cc1
→ 1.9%	8%	12%
CNc1ccnc(-c2c(C)noc2C)n1
→ -0.1%	-5%	3%
COCCn1c(=O)c(-c2cccs2)nc2cnc(Oc3ccccc3)nc21
→ 5.3%	-6%	24%
O=c1c(-c2ccccc2)nc2cnc(N3CCNCC3)nc2n1Cc1cccs1
→ 1.1%	-12%	3%
Cc1cnc(CNc2cc(-c3ccccc3C)ncn2)cn1
→ 3.0%	5%	2%
CCOC(=O)CCC(=O)O[C@H]1C(O[C@@H]2C(C)[C@H](O[C@H]3C[C@@](C)(OC)C(O)C(C)O3)C(C)C(=O)OC(CC)[C@@](C)(O)C(O)[C@H](C)C(=O)C(C)C[C@]2(C)O)OC(C)CC1N(C)C (stereo partly drawn)
→ 2.3%	-7%	-7%
c1cncc(-c2ccc3ncnc(NC4CCNCC4)c3c2)c1
→ 5.9%	-10%	-9%
O=C(Nc1cccc(F)c1)N1CCC2(CC1)CCN(C(=O)c1cccc(F)c1)CC2
→ 6.2%	-24%	4%
O=C1NCN(c2ccccc2)C12CCN(CCCOc1ccc(F)cc1)CC2
→ -2.3%	-24%	18%
c1ccc(CNc2ncnc3ccc(-c4ccc5c(c4)OCO5)cc23)cc1
→ -6.3%	3%	-16%
COc1ccc(NC(=O)N2CC[C@@]3(CCCN(C(=O)c4csnn4)C3)C2)cc1
→ 1.3%	-15%	5%
CN(C)c1ccc(-c2nccc(NCCN3CCOCC3)n2)cc1
→ -10%	5%	-10%

Copied from the list.
Cruzain inh Det with Cc1noc(NS(=O)(=O)c2cccc3c(N(C)C)cccc23)c1C → -3.6%
Cruzain inh noDet with CCOC(=O)CCC(=O)O[C@H]1C(O[C@@H]2C(C)[C@H](O[C@H]3C[C@@](C)(OC)C(O)C(C)O3)C(C)C(=O)OC(CC)[C@@](C)(O)C(O)[C@H](C)C(=O)C(C)C[C@]2(C)O)OC(C)CC1N(C)C (stereo partly drawn) → -7%
StopGo reporter with COc1ccccc1CN1CCCC2(CCN(C(=O)c3c(C)noc3C)CC2)C1 → -7%
StopGo reporter with COc1ccc(CNc2cc(-c3ccccc3CN(C)C)ncn2)c(OC)c1 → 19%

Laid out differently: two of the compounds above
Structure | Cruzain inh Det | StopGo reporter | Cruzain inh noDet
COc1cc2c(cc1O)CCC1C2CC[C@@]2(C)C1CC[C@@H]2O (stereo partly drawn) | -3.4% | u | 2%
CCOC(=O)c1c(C)[nH]c2ccc3c(c12)CN1CCc2cc(OC)ccc2[C@@H]1O3 | -13% | u | -11%

Not all compounds are listed. The share of hits here may be higher or lower than overall.
